# VACV mCherry inh: vaccinia inhibition (mCherry reporter). AID 720579. Vaccinia virus mCherry reporter infection, fluorescence; about a quarter of the inactives have no number. Potency, µM (series often up to 36.5 µM), without a hit: at the highest dose activity change, negative = inhibition, most hits filed as inhibitors. actives 0.63% (n = 310,000); active = well fitted inhibition curve with a large enough effect; inconclusive = small, poorly fitted or top-dose-only effect; inactive = no such curve, though single readings can be large or run the other way; tested in A549 cells; note: nearly all actives have a fitted effect of over 35% in size; inactives centre near -10
# VACV Venus inh: inhibitors of vaccinia virus (Venus reporter); actives 0.46% (n = 330,000); Vaccinia virus Venus reporter expression, fluorescence; Potency, µM (doses to about 36.5 µM), for inactives: top-dose activity change, negative = inhibition, most hits filed as inhibitors; active means well fitted inhibition curve with a large enough effect; inconclusive means small, poorly fitted or top-dose-only effect; inactive means no such curve, though single readings can be large or run the other way; tested in A549 cells; note: nearly all actives have a fitted effect of over 30% in size; inactives centre near -10
# An asterisk follows results filed as active; i = inactive; u = inconclusive; x = not tested or not shown; & = joins results of further samples; [ ] = another dose, or the depositor's remark. % is set by controls: 0 for no effect and ±100 for the full control effect; potency is the fitted concentration of half-maximal effect. The order is random (roughly 0.87% active in at least one column).
compound | VACV Venus inh | VACV mCherry inh
Cc1cc2oc(=O)cc(Cn3ncc(Cl)c(Cl)c3=O)c2cc1Cl | -5.6% | -7.6%
CC(CNC(=O)CCc1cn(Cc2ccccc2Cl)c2ccccc12)c1ccccc1 (stereo not given) | -13.5% | -11.1%
Cc1ccc(CNC2=NCCS2)cc1 | -9.9% | -1.4%
CC(=O)N1N=C(c2ccc(Cl)cc2)CC1c1ccco1 (stereo not given) | -12.1% | -22.7%
Cc1ccc(-c2nc3cnccn3c2Nc2ccc3c(c2)OCO3)o1 | -25.6% | u
Cc1ccc(CNC(=O)CS(=O)(=O)Cc2nc(-c3ccccc3F)oc2C)cc1 | -11.5% | i
O=C(Nc1ccc(F)cc1)C1C2CCC3C(CCC21)C3(Cl)Cl (stereo not given) | -12.8%[7.34 µM] | 3.6%[7.34 µM]
C[C@@H]1CN([C@H](C)CO)C(=O)CCCn2cc(nn2)CO[C@H]1CN(C)C(=O)C1CCCCC1 | -0.2% | 15.6%
CCc1nnc(NC(=O)COc2ccc3c(c2)OCO3)s1 | -9.8% | -2.1%
O=C(NNC(=O)c1ccc([N+](=O)[O-])cc1)c1ccc(Br)cc1 | -11.2% | -4.7%
CCOC(=O)C1(CC2CC2)CCN(S(=O)(=O)/C=C/c2ccccc2)CC1 | -4.7% | -7.6%
Cc1nn2c(N3CCN(C)CC3)cc(C(C)(C)C)nc2c1-c1ccccc1 | -3.1% | i
C#CCOCCOCCOCCNc1nc(N2CCOCC2)nc(N2CCN(C(=O)CCCCCCCCCCNC(=O)[C@@H]([C@H](C)O)n3cc(C)nn3)CC2)n1 | -27.2% | i
Cc1ccc(S(=O)(=O)Oc2ccc(/C=C3/N=C(c4ccccc4)OC3=O)cc2)cc1 | 0.0% | i
COc1ccccc1-n1nnnc1SCC(=O)Nc1ccc(C)c(N)c1 | -13.5% | i
Cc1ccc(C(C)C)c(OCC(O)CN2CCOCC2)c1 (stereo not given) | -4.8% | u
CCC(CC)=NNC(=O)c1ccccc1OCc1ccc(F)cc1 | -8.6% | -14.4%
C[C@H](CO)N1C[C@H](C)[C@@H](CN(C)CC2CC2)OCc2cnnn2CCCC1=O | -15.6% | -9.6%
COc1ccc(NC(=O)CCn2cc(C)c3ccccc32)cc1 | -10.4% | u
Cc1cc(C)n(S(=O)(=O)c2cc(C(=O)O)c(Cl)cc2Cl)n1 | -6.2% | i
CC1(C(=O)NS(=O)(=O)c2cccc(OC(F)F)c2)CCN1C(=O)c1cccc(F)c1 (stereo not given) | 1.7% | 9.0%
O=C(c1ccco1)N1CCN(C(=O)C2CCCN(S(=O)(=O)c3cccc4nsnc34)C2)CC1 (stereo not given) | -3.2% | i
COC(=O)c1cc2sccc2n1CC(=O)Nc1cc(Cl)ccc1OC | u | u
COc1ccc(C(=O)N2C(=O)c3ccc(N)cc3C2=O)cc1 | -10.9% | 4.4%
CCc1ccc(NC(=O)CSc2nc(NS(=O)(=O)c3ccccc3)cc(=O)[nH]2)cc1 | -2.9% | 8.91µM*
CCN(CC)C(=O)C1=C(C)N(CCCOC)C(=O)C(CC(=O)NCCCN(C)C)C1 (stereo not given) | -8.6% | i
CCOC(=O)c1ccc(N2C(=O)C(CC(=O)NC)N(CCc3ccc(OC)c(OC)c3)C2=S)cc1 (stereo not given) | -12.3% | i
COc1ccccc1CNC(=O)c1cc(C)nc2ccccc12 | -7.8% | -9.9%
CCN(CC)C(=O)c1csc(Nc2cccc3ccccc23)n1 | -14.1% | u
O=C(Nc1ccc(C(F)(F)F)cc1Cl)c1ccc(Cn2cc(Br)cn2)o1 | -2.2% | i
CC(C)NC(=O)c1cc(-c2ccc(Br)cc2)on1 | -10.3% | i
Cc1ccc(Nc2cc(-n3nc(C)cc3C)ncn2)c(C)c1 | -18.6% | -22.7%
COc1ccccc1C(=O)Nc1ccc(C(=O)N2CCCC2)cc1 | -8.5% | -4.5%
COc1ccc(C(C(=O)NC2CCCC2)N(Cc2cccnc2)C(=O)c2snc(C(N)=O)c2N)cc1OC (stereo not given) | -3.7% | -8.6%
Cc1nn(Cc2ccccc2)c(C)c1NC(=O)CCCn1nc([N+](=O)[O-])cc1C | 10.5% | -8.5%
CN1C2CC3CC1C(O3)C2O (stereo not given) | -4.5% | i
CCOc1cc(C2c3c(oc4ccccc4c3=O)C(=O)N2Cc2ccc3c(c2)OCO3)ccc1O (stereo not given) | -28.4% | u
CNCC(=O)Nc1ccc(OC(F)(F)F)cc1 | 2.4% | -1.9%
CCc1ccc(-c2cc(C(=O)NN3CCOCC3)c3ccccc3n2)s1 | -9.4% | -13.4%
COc1ccc(C(=O)O)cc1Nc1nc2ccc(C)cc2n2cnnc12 | -2.5% | -4.6%
COc1ccccc1N1CCN(C(=O)Cn2c(=O)oc3cc(S(=O)(=O)N4CCCC4)ccc32)CC1 | -20.9% | i
CCN(CC)S(=O)(=O)c1ccc(C(=O)NCC(=O)NCCCc2ccccc2)cc1 | -8.1% | u
Cc1ccc2sc(N3CCN(C(=O)C4COc5ccccc5O4)CC3)nc2c1C (stereo not given) | -0.6% | i
COC(=O)c1c(C(=O)OC)c2cc(C(=O)c3ccccc3)ccn2c1Cl | -26.4% | x
CC(=O)c1cnn(-c2ccc(Cl)cc2)c1C | -11.8% | -15.4%

# Among those listed so far, 3 have bromine.
compound | VACV Venus inh | VACV mCherry inh
O=C(NNC(=O)c1ccc([N+](=O)[O-])cc1)c1ccc(Br)cc1 | -11.2% | -4.7%
O=C(Nc1ccc(C(F)(F)F)cc1Cl)c1ccc(Cn2cc(Br)cn2)o1 | -2.2% | i
CC(C)NC(=O)c1cc(-c2ccc(Br)cc2)on1 | -10.3% | i

# (list continues)
compound | VACV Venus inh | VACV mCherry inh
Cc1cc([N+](=O)[O-])ccc1NC(=O)/C=C/c1cccs1 | -14.1% | -10.5%
O=C(Nc1ccc(Cl)cn1)c1cnn2c1NC(=C1CC1)C=C2C(F)F | -25.4% | u
Cc1cc(O)c(C=O)c2c1C(=O)Oc1c(COC(=O)/C=C/C(=O)O)c(O)c(C(=O)O)c(C)c1O2 | -15.1% | -7.0%
CCc1ccc(-n2nc(C)c3c(C)cc(=O)n(CC(=O)N(CC)Cc4ccccc4)c32)cc1 | -1.8% | -3.0%
COc1ccc(C=NNC(=S)Nc2ccc(F)cc2)cc1OC | -18.9% | -14.3%
C#CCN1Cc2ccccc2Oc2cc(Br)ccc2S1(=O)=O | -19.8% | i
Cc1ccc(S(=O)(=O)N2[C@@H](c3ccc(C#N)cc3)C(C(=O)O)=C[C@H]2C(C)(C)C)cc1 | 0.0% | -25.9%
CCOC(=O)NC(Nc1ccc(C)cn1)(C(F)(F)F)C(F)(F)F | -8.3% | x
CC(C)(C)[C@H]1COC(=O)[C@H](NC(=O)OCC2c3ccccc3-c3ccccc32)C/C=C\C[C@@H](CC(=O)N(CCO)Cc2ccccc2)C(=O)N1 | u | -22.8%
CC(=O)C[C@@H](O)CC(=O)[C@H]1OC(=O)CCCCCCc2ccccc21 | -9.8% | -3.5%
COCCNC(=O)Nc1ccc2c(c1)N(C)C(=O)CS2 | -9.9% | -19.2%
O=C(Cc1c(Cl)cccc1Cl)N1CCN(Cc2ccccc2)CC1 | -14.4% | -18.3%
CC(OC(=O)c1ccccc1OCC(=O)Nc1ccc(Br)cc1)C(=O)NC1CCCC1 (stereo not given) | -6.6% | i
Cc1cc(C(=O)N/N=C/C=C/c2ccc3c(c2)OCO3)n[nH]1 | 15.3% | x
O=C(COC(=O)/C=C/c1cccs1)Nc1nc(-c2cccc(Br)c2)cs1 | -14.2% | u
O=C(CCCOc1ccccc1)Nc1cccc(C(=O)O)c1 | -2.4% | x
NC(Cc1ccc(F)cc1)c1csc(Nc2ccc(C(=O)NCCCO)cn2)n1 (stereo not given) | 12.3% | 8.1%
COc1ccc2cc(/C(C)=N/NC(=O)c3cc(C)oc3C)ccc2c1 | -9.2% | i
CN(C)/C=C(\C#N)C(N)=C(C#N)C#N | -13.5% | 2.1%
O=C(COC(=O)/C=C/c1ccccc1F)Nc1nnc(-c2ccccc2)o1 | -9.0% | -3.3%
COc1c(O)cccc1-c1nnn(CCC(=O)OCC(=O)c2ccccc2)n1 | -0.9% | -8.2%
CCCCCCCN(c1ccccc1)[C@@H]1C[C@H]2CCCC(=O)N3CC[C@@H](C1)[C@@H]23 | u | u
CC1Cc2ccccc2N1S(=O)(=O)c1nnc(NC(=O)c2ccccc2)s1 (stereo not given) | -12.2% | 1.0%
CC(C)(C)C1CCC(=O)N(CCOc2ccccc2)CC1 (stereo not given) | -7.9%&-26.0% | -0.9%
Cc1c(NC(=O)C(C)OC(=O)COc2cccc3c2OC(C)(C)C3)c(=O)n(-c2ccccc2)n1C (stereo not given) | -0.2% | -11.4%
CCOc1cccc(CN2CCC(n3cc(C(=O)N4CCCCC4)nn3)CC2)c1O | -8.0% | -16.7%
CN1CCN(c2ncnc3c2cnn3-c2cccc(Cl)c2)CC1 | 7.6% | -5.9%
COc1cc2c(cc1OC)CN(CC(=O)Nc1ccccc1SC)CC2 | -26.7% | -9.3%
Clc1cccc(-c2nc3ccc(Cl)cn3c2Cc2ccccc2)c1 | 0.9% | i
CCCCNS(=O)(=O)c1ccc(NC(=O)C(Sc2ccccc2)c2ccccc2)cc1 (stereo not given) | 10µM* | u
C/C(=N\NC(=O)c1ccc(COc2ccccc2)cc1)c1ccncc1 | 0.0% | -11.7%
Cc1ccccc1NC(=O)c1sc2nc3c(cc2c1N)CN(Cc1ccccc1)CC3 | -16.5% | -19.4%
CCOC(=O)CSc1cc(CSc2ccccc2)nc(-c2ccccc2)n1 | 2.2% | x
CCOC(=O)[C@]12CCC=C1N(CCC1=CCCCC1)C(=O)[C@H](CC(=O)N1CCSCC1)C2 | -3.2% | -5.2%
CCC(COC(=O)Nc1cccc(C)c1)NC(=O)OCC(C)C (stereo not given) | -20.6% | -1.4%
Cc1ccc(C(=O)Nc2cnc3sc(C)nn3c2=O)cc1 | -8.1% | x
CCOC(=O)C(C)Oc1ccc(C2NC(=O)NC(C)=C2C(=O)Nc2ccccc2C)cc1 (stereo not given) | -3.2% | -11.1%
CCOC(=O)COc1cc(-n2c(=S)[nH]c3cc(OC)c(OC)cc3c2=O)c(Cl)cc1Cl | -1.7% | -5.9%
O=C(NCc1cccn1Cc1ccccc1)Nc1cccc(C(F)(F)F)c1 | -5.9% | -8.1%
CC1(C(=O)N2CC3(CC(c4cccc(NC(=O)CC(c5ccccc5)c5ccccc5)c4)=NO3)C[C@@H]2C(N)=O)CC1 (stereo not given in full) | -15.0% | i
CC(On1nnc2ccc(S(=O)(=O)N3CCOCC3)cc21)C(=O)Nc1ccccc1F (stereo not given) | -1.3% | i
O=C(Cc1ccsc1)Nc1ccc(S(=O)(=O)C(F)F)cc1 | u | 10µM*
FC(F)(F)Oc1ccccc1C(c1nnnn1-c1ccc2c(c1)OCCO2)N1CCN(C/C=C/c2ccccc2)CC1 (stereo not given) | -11.0% | i
Cn1cnc2c(SCc3ccccc3)ncnc21 | -2.2% | i
O=C(COc1ccc(S(=O)(=O)N2CCOCC2)cc1Cl)NC1CCCCC1 | -8.4% | -12.5%
CCN(CC)S(=O)(=O)c1cc(NC(=O)COc2ccc(C#N)cc2OC)ccc1C | -16.4% | u
CCCCn1c(=O)[nH]c(=O)c2c1nc(-c1ccc(C#N)cc1)n2C1CCCC1 | -11.6% | i
COc1cccc(NC(=O)[C@@H](NC(=O)N2C[C@H]3C[C@@H](C2)c2cccc(=O)n2C3)C(C)C)c1 | 8.0% | -0.2%
CCCCCCN1C[C@H](n2cc(COC(=O)c3ccccc3)nn2)[C@@H](O)C[C@@H]1c1ccc(C)cc1 | -25.5% | -5.5%
Cc1ccc(C(=O)N/C(=C\c2ccc(F)cc2)C(=O)NCc2ccncc2)cc1 | -14.9% | -26.3%
O=C(c1cccc(S(=O)(=O)N2CCCC2)c1)N(Cc1ccco1)C1CCS(=O)(=O)C1 (stereo not given) | 1.9% | -5.5%
Cc1cc(C)c2c(CC(=O)Nc3cc(C(F)(F)F)ccc3Cl)coc2c1 | -29.2% | u
Cc1c(C(=O)OCc2ccccc2)[nH]c2c1C(=O)CC(c1ccc(N(C)C)cc1)C2 (stereo not given) | -3.4%[7.34 µM] | -12.6%[7.34 µM]
Nc1ccc(C(=O)O)c(O)c1 (tested in a mixture with another compound) | -1.8% | -7.0%
O=S(=O)(Nc1nc2ccccc2nc1NCC1CCCO1)c1cc(Cl)ccc1Cl (stereo not given) | 3.9% | i
O=C(Nc1ccc(Cl)cn1)C1CCCN1S(=O)(=O)c1ccccc1 (stereo not given) | -22.6% | -18.8%
CCS(=O)(=O)c1ncc(CO)n1CCc1ccccc1 | -6.5% | -13.2%

# Exported as labelled records: entries from further up
> O=C(Nc1ccc(Cl)cn1)C1CCCN1S(=O)(=O)c1ccccc1 (stereo not given)
- VACV Venus inh: -22.6%
- VACV mCherry inh: -18.8%
> O=C(c1cccc(S(=O)(=O)N2CCCC2)c1)N(Cc1ccco1)C1CCS(=O)(=O)C1 (stereo not given)
- VACV Venus inh: 1.9%
- VACV mCherry inh: -5.5%

# Compound activity: PubChem BioAssay, National Center for Advancing Translational Sciences (NCATS)
